# CtBP-E1A blk – CtBP/E1A binding inhibition; AlphaScreen GST-E1A/His-CtBP binding, 1536-well; active compounds read low; control for the full effect not named in the record; activity change, % (concentration not given with the values); 340,000 tested, 0.49% active; in the data active means activity change below about -65%; inconclusive means about -30% to -65%; inactive means above about -30%; also: % is scaled to controls: 0 for no effect and ±100 for the full control effect
#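 Homogeneous bead-based format: GST-tagged E1A captured on glutathione donor beads, His-tagged CtBP on nickel acceptor beads; compounds precede bead addition by 2 h at 37 °C.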
# TRPML1 agonist – agonists of human TRPML1 channel; TRPML1-expressing cells, Ca2+ dye fluorescence, FDSS; host cell line not named in the record; reference of the full effect not given here; activation, % (test concentration not listed); 410,000 tested, 0.12% active; in the data active = activation above about 50%; inconclusive = about 30% to 50%; inactive = below about 30%; also: 0% is about no effect; the text of the record puts the active cut at 80%
# Target sequence (Q9GZU1 whole entry, looked up): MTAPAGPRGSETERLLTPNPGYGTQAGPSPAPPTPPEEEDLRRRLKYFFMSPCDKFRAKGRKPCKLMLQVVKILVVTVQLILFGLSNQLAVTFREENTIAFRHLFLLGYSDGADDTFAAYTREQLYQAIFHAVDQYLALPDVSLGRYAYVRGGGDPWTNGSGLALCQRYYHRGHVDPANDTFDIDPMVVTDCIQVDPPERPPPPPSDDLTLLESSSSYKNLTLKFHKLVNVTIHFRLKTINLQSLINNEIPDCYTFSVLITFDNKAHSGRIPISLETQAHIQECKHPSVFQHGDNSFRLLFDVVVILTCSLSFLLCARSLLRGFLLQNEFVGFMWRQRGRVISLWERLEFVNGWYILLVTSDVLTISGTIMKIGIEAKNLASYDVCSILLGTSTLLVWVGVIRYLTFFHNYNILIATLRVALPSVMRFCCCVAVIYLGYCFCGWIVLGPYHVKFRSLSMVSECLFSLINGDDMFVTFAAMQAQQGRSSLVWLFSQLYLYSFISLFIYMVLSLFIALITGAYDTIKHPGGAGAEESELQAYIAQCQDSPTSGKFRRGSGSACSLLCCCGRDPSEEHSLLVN
#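 Agonist activity was taken from a 110 s kinetic Ca2+ dye read on the FDSS after pinning compounds onto TRPML1-DL cells. The cells were seeded at 1,500/well with Tet inducer, incubated about 16 h, then dye-loaded at room temperature.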
# PINK1 expr mod – PINK1 expression modulation. PINK1 immunofluorescence, high-content cytometry, 24 h. AID 624263. Potency, µM (series often up to 76.6 µM), for the others: top-dose activation (PINK1 increase), most hits filed as activators. 410,000 tested, 0.2% active; active = well fitted activation curve with a large enough effect; inconclusive = small, poorly fitted or top-dose-only effect; inactive = flat fitted curve, though single readings scatter; cell line not stated here;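 also: potency is read from the fitted curve at half-maximal effect; % of control where 0% means no effect; nearly all actives have a fitted effect of over 65% in size; a mitochondrial uncoupler was the plate control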
#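 A stable cell line was treated with compounds at 5 concentrations for 24 hours, with CCCP as control. PINK1 levels and mitochondrial localization were measured by immunofluorescence with mitochondrial, cell and nuclear markers after fixation, read by laser-scanning cytometry.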
# Six1-Eya2 blk – blocks human Six1 binding to Eya2; AlphaScreen GST-Six1/His-Eya2 binding, biochemical; active compounds read low; control for the full effect not named in the record; activity change, % (no concentration beside the values); 360,000 tested, 0.56% active; Q15475+O00167; AID 651725; in the data active = activity change below about -65%; inconclusive = about -30% to -65%; inactive = above about -30%; also: % is scaled to controls: 0 for no effect and ±100 for the full control effect
#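 Six1/Eya2 binding was read as AlphaScreen signal after compounds were pinned into GST-Six1 plus His-tagged Eya2 (5X stock 250/500 nM) in pH 8.0 Tris/NaCl/TCEP buffer, beads added, then incubated 1 h, 37 C, dark.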
# D2 ag – activates the human D2 dopamine receptor. P14416. DiscoveRx PathHunter D2 beta-arrestin, luminescence, 90 min; 100% = 57 uM dopamine signal. activation, % (no concentration beside the values). 360,000 tested, 0.084% active. AID 624465; in the data active = activation above about 40%; inconclusive = about 15% to 40%; inactive = below about 15%; also: compound concentration not given in the record; the text of the record calls up to 30% inactive
# Target sequence (P14416 whole entry, looked up): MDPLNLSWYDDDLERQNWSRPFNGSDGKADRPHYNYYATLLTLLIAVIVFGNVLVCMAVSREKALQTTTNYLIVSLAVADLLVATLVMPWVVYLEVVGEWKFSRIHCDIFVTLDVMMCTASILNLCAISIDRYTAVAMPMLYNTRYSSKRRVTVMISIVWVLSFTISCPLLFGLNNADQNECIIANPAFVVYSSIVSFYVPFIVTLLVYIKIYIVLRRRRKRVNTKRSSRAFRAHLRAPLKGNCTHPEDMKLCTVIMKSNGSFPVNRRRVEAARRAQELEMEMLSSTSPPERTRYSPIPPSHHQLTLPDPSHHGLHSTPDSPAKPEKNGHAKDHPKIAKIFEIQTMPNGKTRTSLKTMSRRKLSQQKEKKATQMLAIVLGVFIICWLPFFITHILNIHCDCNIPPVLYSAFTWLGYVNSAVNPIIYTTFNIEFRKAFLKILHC
#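 Agonist mode: compounds alone added to overnight-plated D2 PathHunter cells for 90 min at 37 C, with 57 uM final dopamine (EC100) defining full response. Beta-arrestin recruitment detected by chemiluminescent reagent, read after 1 h at ambient temperature.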
# D2 PAM – potentiates the human D2 dopamine receptor allosterically | P14416 | DiscoveRx D2 beta-arrestin cells, luminescence, 90 min; 100% = 57 uM dopamine signal | potentiation, % (no concentration beside the values) | 360,000 tested, 0.23% active | AID 624464; active = potentiation of 50% or more; inconclusive = 30% to 50%; inactive = 30% or less;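 also: compound concentration not given in the record; tested on top of an EC20 dose of dopamine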
#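 D2 cells co-treated with compound plus 50 nM dopamine (EC20) for 90 min at 37 deg C to detect potentiation. Beta-arrestin recruitment was read as enzyme-fragment luminescence after 1 h at ambient temperature. Full response was set by 57 uM dopamine.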
# Starred values were filed as active, the others as inactive; ? = inconclusive; . = not tested or not shown; & = joins results of further samples; [ ] = another dose, or the depositor's remark.
SMILES,CtBP-E1A blk,TRPML1 agonist,PINK1 expr mod,Six1-Eya2 blk,D2 ag,D2 PAM
Cc1ccc(S(=O)(=O)N2CCC(C(=O)OCC(=O)N3CCCCC3C)CC2)cc1C (configuration not stated),4,-0.8,1.2%,-1,-5.8,-23
CCc1c(C)sc(NC(=O)c2noc(C)c2[N+](=O)[O-])c1C#N,.,0.7,-1.5%,-1,-5.3,-4
O=C(C[C@H]1C/C=C\C[C@@H](Cc2ccc(F)cc2)C(=O)OC[C@@H]2CCCN2C1=O)NCCO,10,-0.4,1.6%,4,0.8,-2
Cc1nn(-c2ccccc2)c(C)c1NC(=O)COC(=O)c1ccc(S(=O)(=O)C(F)F)cc1,-14,-0.1,3.6%,-6,-3.8,-1
NNC(=O)c1cc(O)c(O)c(O)c1,.,0.1,-0.6%,-25,?,6
Cc1cnc(NC(=O)c2cc3ccccc3o2)s1,3,-0.2,0.4%,4,-0.3,-4
Cc1ccc(F)cc1CNC(=O)C1CCC(=O)N(CC2CCCCC2)C1 (configuration not stated),-9,-0.6,-1.5%,11,2.9,-7
CCOC(=O)C1(CC2CC2)CCN(Cc2cnc(-c3ccccc3C)nc2)CC1,5,4.5,2.0%,-8,0.1,-6
Cc1ccc(C(=O)NNC(=O)Cc2csc(-c3csc(C)n3)n2)cc1,.,-0.9,1.6%,8,-6.8,-19
O=C(Nc1ccccc1)N1CCN(c2cccc(C(F)(F)F)c2)CC1,8,0.7,.,0,3.0,-6
COC(=O)[C@]12CCCCC=C1N(Cc1cccc3ccccc13)C(=O)[C@H](CC(=O)NCc1cccc(C(F)(F)F)c1)C2,-27,0.6,1.3%,1,.,.
Cc1nnc(SC(C)C(=O)Nc2ccc(S(=O)(=O)N3CCCCC3)cc2)s1 (configuration not stated),-2,1.1,1.3%,5,1.2,26
Cc1ccc(-n2c(SCC(=O)Nc3ccc4c5c(cccc35)CC4)nc(O)c(C)c2=O)cc1,?,-0.8,-1.4%,-26,-2.9,-7
COc1cccc(C(=O)N/N=C/c2ccc(OC)c(COc3ccccc3C(N)=O)c2)c1,?,0.8,4.2%,?,-2.4,-14
CCN(Cc1cc(=O)n2ccsc2n1)Cc1nc2cc(OC)c(OC)cc2c(=O)[nH]1,23,.,-0.1%,9,1.5,3

# The final 2 compounds of the part before come first, to join the parts:
SMILES,CtBP-E1A blk,TRPML1 agonist,PINK1 expr mod,Six1-Eya2 blk,D2 ag,D2 PAM
COc1cccc(C(=O)N/N=C/c2ccc(OC)c(COc3ccccc3C(N)=O)c2)c1,?,0.8,4.2%,?,-2.4,-14
CCN(Cc1cc(=O)n2ccsc2n1)Cc1nc2cc(OC)c(OC)cc2c(=O)[nH]1,23,.,-0.1%,9,1.5,3
COc1ccc2nc(SCC(=O)N3CCCCC3)c(C#N)cc2c1,2,2.1,-0.5%,-2,2.4,-4
C/C(=N/NC(=O)c1cccc(Br)c1)C1CC2CCC1C2 (configuration not stated),11,-0.4,-0.4%,17,2.1,-5
COC(=O)[C@@]12CCCCN1[C@H](c1ccc(-c3ccc(Cl)c(Cl)c3)c(OC)c1)[C@H]1C(=O)N(C)C(=O)[C@H]12,2,-0.7,4.4%,0,-1.6,-3
C#CCn1c(S(=O)(=O)Cc2ccc(C)cc2)nc(-c2ccccc2)c1-c1ccccc1,-8,1.3&-0.3,1.9%&0.6%,-10&-7,-0.9,-8
Cc1cc(C)c(C#N)c(SCc2nc3ccccc3[nH]2)n1,5,-1.1,0.7%,6,-3.6,0
c1ccc(-n2cc(CN3CCCC3)c(-c3ccc4c(c3)OCO4)n2)cc1,-1,-0.1,3.3%,-14,-0.5,-30
CC[C@@]1(C(=O)OC)N[C@H](CN(C)C(=O)Nc2ccccc2)[C@@H]2C(=O)N(C)C(=O)[C@@H]21,5,0.2,0.6%,8,-1.6,.
N#Cc1nc(COc2cccc(Cl)c2)oc1NCc1ccncc1,-1,1.0,-1.5%,-2,-1.4,-10
COC(=O)CC1C(=O)NCCN1C(=O)c1ccc(S(=O)(=O)N2CCOCC2)cc1 (configuration not stated),-1,0.2,2.1%,7,-4.0,-2
Cc1ccc(NC(=O)c2ccc(S(=O)(=O)N3CCCC3)cc2)cc1,6,1.9,0.1%,5,-1.8,-5
CCOc1ccc(C(=O)NC(=S)Nc2ccc(N3CCC(C)CC3)cc2)cc1[N+](=O)[O-],-13,-0.1,-1.0%,-10,-1.9,4
FC(F)(F)c1cccc(Cc2noc(CN3CCC(c4ccncc4)CC3)n2)c1,2,0.6,0.6%,-6,4.0,-11
CCCC1(c2ccccc2)NC(=O)N(C/C=C/Cl)C1=O (configuration not stated),-5,0.5,4.1%,-6,-6.9,-4
CCc1nnc(SCc2ccc(OC)c(Br)c2)n1N,2,-0.9,1.2%,-6,-3.9,-4
Cc1ccc(NC(=O)COc2ccccc2C(=O)NCc2ccccc2)cc1,4,1.0,0.6%,3,-2.3,-1
C=CCNC(=O)NC(=O)COC(=O)c1ccccc1Sc1ccc(C(F)(F)F)cc1[N+](=O)[O-],0,3.9,-0.4%,4,5.8,0
CCCNC(=O)Cn1c(=O)/c(=C/c2ccc(-c3ccc([N+](=O)[O-])cc3)o2)s/c1=C\C(=O)C(C)(C)C,6,?,11%,-1,5.5,3
O=C(COC(=O)c1cc(Br)ccc1Cl)NC1CC1,8,0.6,3.0%,-1,4.9,15
CC(C)Oc1ccc(C(=O)OC(C)C(=O)Nc2nc(-c3cccc([N+](=O)[O-])c3)cs2)cc1 (configuration not stated),.,-0.4,3.8%,10,-3.8,-7
CCC(C)C(NC(=O)C(N)CC(C)C)C(=O)NC(CCC(=O)OCc1ccccc1)C(N)=O (configuration not stated),6,0.4,-0.1%[38.3 µM],0,-3.1,-14
CCOc1ccc(Nc2oc(-c3ccco3)nc2C#N)cc1,-22,-0.9,-0.7%,-26,10,?
C(=N\N=C\c1cccnc1)/c1cccnc1,11,0.0,?,4,0.1,5
Cc1ccc(NC(=S)NCc2ccc3[nH]c4c(c3c2)CCCC4)cc1,-19,-0.5,8.7%,-4,-4.1,-15
O=c1c2ccccc2c(-c2n[nH]c(=S)o2)nn1Cc1ccccc1,.,0.6,-2.1%,-20,2.7,-8
COc1ccccc1C(=O)NCCC(=O)NC1CCCCC1C (configuration not stated),-10,-0.4,1.5%,6,-3.5,5
CCOc1ccc2nc(NC(=O)C3CCCO3)sc2c1 (configuration not stated),1,-0.4,1.9%,-1,-4.2,4
O=C(NCc1cccs1)c1cccn2c(=O)c3sccc3nc12,?,-0.1,5.3%,?,1.8,8
CCC1Oc2ccccc2N(CC(=O)NC2CCCCC2)C1=O (configuration not stated),4,-0.1,2.1%,3,-0.7,1
CCCNC(=O)NC(=O)COC(=O)/C=C/c1cc(Br)ccc1F,1,0.3,0.8%,1,-0.1,1
CCCCCC(=O)N1CC2(CC(c3cccc(NC(=O)CC(c4ccccc4)c4ccccc4)c3)=NO2)C[C@@H]1C(N)=O (some centres not stated),-4,-0.4,1.8%,-3,-1.2,8
Cc1cc(-c2nnc(CCC(=O)NC(C)c3cccc4ccccc34)o2)no1 (configuration not stated),4,.,2.8%,5,-2.8,-1
NCc1csc(Nc2nncc3ccccc23)n1,-30,-0.6,0.8%,-10,-4.2,-2
COc1ccc(N2CCN(CCCNS(=O)(=O)c3ccc4c(c3)oc(=O)n4C)CC2)cc1,3,0.3,1.4%,-6,2.1,-11
Cc1ccccc1CN1CCNC(=O)C1CC(=O)NCCN1CCCCC1=O (configuration not stated),-6,0.3,-0.5%,2,-3.6,-26
Nc1ccc2c(c1)C(=O)c1ccccc1C2=O,-18,-0.2,1.3%,-14,-6.0,11
Cc1ccc2c(c1)N(CC(=O)NCC1CCCO1)C(=O)C(C(C)C)O2 (configuration not stated),1,-0.4,-1.5%,-2,-1.3,-3
COc1cc(CC(C#N)(CO)c2nc3ccccc3[nH]2)ccc1OC(F)F (configuration not stated),18,-0.5,1.1%,3,-0.3,-12
COc1ccc(OC)c(C(c2nnnn2Cc2ccccc2)N2CCC(C(N)=O)CC2)c1 (configuration not stated),2,0.0,-1.0%,-6,-2.6,-23
Cc1ccc(NCC(=O)N2CCN(S(=O)(=O)c3ccccc3)CC2)cc1F,-4,0.4,2.2%,-7,3.0,-12
S=c1nc(-c2ccco2)[nH][nH]1,2,-0.1,0.9%,-4,-0.1,-3
O=C(Cn1cnc2c(NCc3ccccc3)ncnc21)NCCCc1ccccc1,2,0.2,1.8%,1,-2.7,-3
COc1cc(/C=C/C(=O)N(C)c2ccccc2C(=O)O)cc(OC)c1OC,2,0.3,-1.2%,-1,-1.7,-1
Cc1ccc(S(=O)(=O)NCc2cccc([N+](=O)[O-])c2)cc1,3,0.4,1.4%,-9,-4.5,-9
COc1cc2c(C(=O)N3CCN(c4cccc(Cl)c4)CC3)cn(C)c(=O)c2cc1OC,3,-0.6&0.3,7.5%&5.6%,0,1.0,-2
CCc1nnc(NC(=O)CCC2CCCCC2)s1,11,4.8,1.4%,6,-2.7,-8
O=C(N/N=C/c1ccncc1)c1cc(-c2ccc(Br)s2)[nH]n1,?,1.9,-1.6%,-13,6.1,8
O=C(O)CCCC(=O)Nc1ccn(-c2ccccc2)n1,0,-0.6,-0.3%,5,-1.0,-3
CC(C)c1c(C(=O)N/N=C/c2cccs2)nnn1-c1nonc1N,1,-1.7,-0.6%,-5,12,1
NC(=O)C1CCCN(C(=S)NCc2ccc3c(c2)OCO3)C1 (configuration not stated),0,0.8,-0.8%,2,-7.5,-4
O=C(COc1ccc2ccccc2c1)N/N=C/C1CC=CCC1 (configuration not stated),-4,1.1,12%,-5,-1.1,14
C/C(=N\NC(=O)Cc1ccccc1)c1cccs1,-1,0.2,2.1%[38.3 µM],0,-2.0,-18
CCOC(=O)c1ccc(N2CCN(c3ccccc3F)CC2)c(NC(=O)Nc2cccc(OC)c2)c1,-6,1.2,?,11,-3.8,10
Cc1ccccc1-c1nc2c(s1)CCc1onc(-c3ccc(Cl)cc3)c1-2,4,-0.9,-0.4%,5,-3.4,-9
CN(C)S(=O)(=O)c1ccc(N2CCCC2)c(C(=O)NC2CCCCC2)c1,9,-0.4,0.6%,-4,-1.7,4
O=C(Nc1ccc(Oc2ccc(NC(=O)Nc3ccccc3Cl)cc2)cc1)Nc1ccccc1Cl,0,-0.3,7.6%,0,2.2,-6
Cc1nnc(NC(=O)c2ccco2)s1,1,0.5,-1.1%,-20,-4.2,-10
Cc1cccc(C)c1NC(=O)CN(C)C(=O)C(c1ccccc1)c1ccccc1,-1,1.3,0.0%,14,-4.5,-13

# Full records, quoted from the list:
# Profile of NC(=O)C1CCCN(C(=S)NCc2ccc3c(c2)OCO3)C1 (configuration not stated) = CtBP-E1A blk: 0; TRPML1 agonist: 0.8; PINK1 expr mod: -0.8%; Six1-Eya2 blk: 2; D2 ag: -7.5; D2 PAM: -4
# Profile of O=C(COc1ccc2ccccc2c1)N/N=C/C1CC=CCC1 (configuration not stated) = CtBP-E1A blk: -4; TRPML1 agonist: 1.1; PINK1 expr mod: 12%; Six1-Eya2 blk: -5; D2 ag: -1.1; D2 PAM: 14

# Source: PubChem
